High-throughput results from PubChem.
PINK1 modulator: modulators of PINK1 expression. Potency, µM (titrated, usually from 76.6 µM), without a hit: top-dose activation (PINK1 increase), actives largely listed as activators. PINK1 immunofluorescence, high-content cytometry, 24 h. 410,000 tested, 0.2% active; active = well fitted activation curve with a large enough effect; inconclusive = small, poorly fitted or top-dose-only effect; inactive = flat fitted curve, though single readings scatter; cell line not stated here;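 also: potency is read from the fitted curve at half-maximal effect; % of control where 0% means no effect; nearly all actives have a fitted effect of over 65% in size; a mitochondrial uncoupler was the plate control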
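Readout is PINK1 immunofluorescence, quantified alongside mitochondrial, cell and nuclear markers by laser-scanning microplate cytometry. Cells from a stable line were exposed to compound titrations (5 concentrations) for 24 hours, with CCCP controls.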
TRPML1 agonist: activates the human TRPML1 channel; Q9GZU1; TRPML1-expressing cells, Ca2+ dye fluorescence, FDSS; host cell line not named in the record; reference of the full effect not given here; activation, % (test concentration not listed); 410,000 tested, 0.12% active; AID 624414; in the data active = activation above about 50%; inconclusive = about 30% to 50%; inactive = below about 30%; also: 0% is about no effect; the text of the record puts the active cut at 80%
Target sequence (Q9GZU1 whole entry, looked up): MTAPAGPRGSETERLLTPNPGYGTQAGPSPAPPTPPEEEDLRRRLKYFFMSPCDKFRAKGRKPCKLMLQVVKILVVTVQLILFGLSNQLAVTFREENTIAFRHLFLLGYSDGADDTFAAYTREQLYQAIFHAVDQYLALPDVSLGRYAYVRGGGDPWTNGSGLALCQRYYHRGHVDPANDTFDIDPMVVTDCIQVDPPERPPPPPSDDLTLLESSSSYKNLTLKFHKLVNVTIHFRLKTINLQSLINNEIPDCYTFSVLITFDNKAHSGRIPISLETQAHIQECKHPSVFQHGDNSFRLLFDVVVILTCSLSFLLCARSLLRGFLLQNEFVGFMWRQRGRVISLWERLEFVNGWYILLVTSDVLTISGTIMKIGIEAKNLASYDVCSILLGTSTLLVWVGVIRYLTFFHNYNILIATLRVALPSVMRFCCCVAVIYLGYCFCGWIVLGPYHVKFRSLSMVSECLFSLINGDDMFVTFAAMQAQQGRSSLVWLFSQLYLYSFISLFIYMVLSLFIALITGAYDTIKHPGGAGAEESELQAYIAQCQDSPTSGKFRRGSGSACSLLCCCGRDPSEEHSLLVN
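Tetracycline-induced TRPML1-DL cells are seeded and incubated overnight before loading with a no-wash Ca2+ dye and quencher. Agonist activity is taken from the 110 s fluorescence read following compound pin-transfer on an FDSS, before EC80 54-4 challenge.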
D2 PAM: potentiates the human D2 dopamine receptor allosterically | P14416 | DiscoveRx D2 beta-arrestin cells, luminescence, 90 min; 100% = 57 uM dopamine signal | potentiation, % (test concentration not listed) | 360,000 tested, 0.23% active; active = potentiation of 50% or more; inconclusive = 30% to 50%; inactive = 30% or less;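 also: compound concentration not given in the record; tested on top of an EC20 dose of dopamine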
Target sequence (P14416 whole entry, looked up): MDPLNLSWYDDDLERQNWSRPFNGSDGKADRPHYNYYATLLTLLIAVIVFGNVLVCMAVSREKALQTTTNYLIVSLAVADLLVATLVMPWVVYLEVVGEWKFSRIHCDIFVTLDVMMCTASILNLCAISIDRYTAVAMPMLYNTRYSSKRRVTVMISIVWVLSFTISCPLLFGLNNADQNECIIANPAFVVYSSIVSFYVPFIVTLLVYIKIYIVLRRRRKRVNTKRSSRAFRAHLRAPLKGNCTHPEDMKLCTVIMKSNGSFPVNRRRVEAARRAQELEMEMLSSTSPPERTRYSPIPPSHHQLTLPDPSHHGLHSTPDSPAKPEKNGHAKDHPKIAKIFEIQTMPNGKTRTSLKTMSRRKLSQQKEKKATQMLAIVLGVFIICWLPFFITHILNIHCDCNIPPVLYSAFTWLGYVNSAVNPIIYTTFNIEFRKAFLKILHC
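PathHunter beta-arrestin assay in DiscoveRx D2 cells. Compounds were added with an EC20 of dopamine (50 nM final) for 90 min at 37 deg C. Luminescence was read 1 h after detection reagent, with 57 uM dopamine as the EC100 control.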
TRPML1 inh: blocks the human TRPML1 channel; Q9GZU1; TRPML1-inducible cells, Ca2+ dye fluorescence, FDSS; stronger effect = lower value; inhibition of EC80 agonist-evoked calcium signal; activity change, negative = inhibition, % (concentration not given with the values); 390,000 tested, 0.02% active; AID 624415; in the data active means activity change below about -50%; inconclusive means about -30% to -50%; inactive means above about -30%;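 also: stimulus is agonist 54-4 at its EC80 concentration; % is scaled to controls: 0 for no effect and ±100 for the full control effect; compound concentration not given in the record; the text of the record puts the active cut at -80%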
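TRPML1-DL cells, Tet-induced overnight (~16 h, 37 °C) at 1,500 cells/well, were loaded with Ca8 no-wash dye plus quencher for 45-90 min at room temperature. Compounds were pinned during FDSS kinetic reading; agonist 54-4 at EC80 (4 uM final) then added.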
Six1-Eya2 inh: blocks human Six1 binding to Eya2 | AlphaScreen GST-Six1/His-Eya2 binding, biochemical; stronger effect = lower value; control for the full effect not named in the record | activity change, % (concentration not given with the values) | 360,000 tested, 0.56% active | AID 651725; in the data active = activity change below about -65%; inconclusive = about -30% to -65%; inactive = above about -30%; also: % is scaled to controls: 0 for no effect and ±100 for the full control effect
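AlphaScreen with GST-Six1 and His-Eya2 (5X mix: 250 nM and 500 nM), glutathione donor and nickel acceptor beads; buffer 50 mM Tris pH 8.0, 300 mM NaCl, 1 mM TCEP; 1 h at 37 C in the dark.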
D2 ag: activates the human D2 dopamine receptor | P14416 | 360,000 tested, 0.084% active | DiscoveRx PathHunter D2 beta-arrestin, luminescence, 90 min; 100% = 57 uM dopamine signal | activation, % (concentration not given with the values) | AID 624465; in the data active = activation above about 40%; inconclusive = about 15% to 40%; inactive = below about 15%; also: compound concentration not given in the record; the text of the record calls up to 30% inactive
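DiscoveRx PathHunter D2 beta-arrestin cells (2,100/well) attached overnight, then compound-stimulated 90 min at 37 C in HBSS/10 mM HEPES/0.1% Tween-20 buffer; beta-galactosidase complementation read by luminescence after 1 h at ambient temperature. Dopamine 57 uM final (EC100) as control.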
An asterisk follows results filed as active; ? = inconclusive; / = no result given; [ ] = dose if it differs, or a comment. Outcome played no part in choosing rows. Share with any hit: about 1%.

SMILES | PINK1 modulator | TRPML1 agonist | D2 PAM | TRPML1 inh | Six1-Eya2 inh | D2 ag
O=C(OCc1cnc(Cl)s1)c1ccccc1Cl | 1.1% | 1.4 | -1.5 | 18.3 | 35.2 | -0.8
CC(/C=N/Nc1nc2ccccc2[nH]1)=C\c1ccccc1 | 1.9% | 2.5 | -9.1 | -8.8 | 4.6 | -2.2
O=C(NCC(=O)N1CCC2(CC1)NCCc1[nH]cnc12)c1ccc(F)cc1 | 1.1% | 4.7 | -6.3 | 25.1 | -1.8 | 1.6
COc1cccc(CNC(=O)c2ccc(OC)c(S(=O)(=O)NC3CCCC3)c2)c1 | -1.9% | -0.7 | -17.5 | -0.5 | -6.2 | 2.9
CCOc1ccc(C2=NNC(c3cccs3)=Nc3ccc(OC)cc32)cc1 | 1.0% | 1.1 | -8.2 | -5.5 | -25.4 | -3.7
CN(CCOc1ccccc1)CC(=O)Nc1cc([N+](=O)[O-])ccc1Cl | 0.0% | -0.3 | -3.8 | -7.7 | -9.4 | 1.7
CCCCn1nnnc1NCc1ccc(C)s1 | 1.0%[38.3 µM] | -0.8 | -3.1 | -1.3 | 3.6 | -1.1
Cn1c(=O)c([N+](=O)[O-])c(NCc2ccccc2)c2ccccc21 | 3.5% | -1.6 | -14.4 | 4.5 | -17.1 | 0.2
O=C(NCCc1ccccn1)c1cc2ccccc2o1 | 0.1% | 0.2 | -9.8 | 1.1 | 10.3 | -6.8
c1ccc(-n2nnnc2CN2CCOCC2)cc1 | 0.8% | -0.2 | -6.0 | -7.9 | 0.6 | -0.9
Cc1cc(C)c2nc(SC(C)C(=O)NCC(=O)Nc3ccc(F)c(F)c3F)cc(C)c2c1 (stereo not given) | 8.9% | 0.5 | -8.4 | 4.3 | 3.3 | -3.0
CCCCNC(=O)C1CCC(CNc2nc(=S)[nH]c3ccccc23)CC1 (stereo not given) | 19.1% | 0.8 | 0.2 | 62.5 | -8.0 | -3.2
O=S(=O)(c1cnccc1N1CCN(/N=C/c2ccc(Br)cc2)CC1)N1CCCCC1 | 3.2% | -1.2 | -0.6 | -1.0 | 11.3 | -1.6
CSc1ccc(CN2C(=O)C(C)Sc3ccc(C(C)=O)cc32)cc1 (stereo not given) | 1.2% | 1.3 | -8.1 | 6.1 | 3.8 | -4.3
COc1cccc(NC(=O)c2ccc3c(c2)N(CC(=O)N2CCOCC2)C(=O)C(C)(C)O3)c1 | 2.5% | -0.2 | -6.4 | 26.4 | 2.8 | 3.2
Cc1cccc(N2CCN(C(=O)CCS(=O)(=O)c3ccc(Br)cc3)CC2C)c1 (stereo not given) | 0.1% | 3.1 | -4.2 | 21.0 | -29.8 | -2.3
CC(C)(S)[C@@H](N)C(=O)O | -0.1% | 0.3 | -6.3 | -16.2 | -6.3 | -2.7
O=C(CSc1nc2c([nH]c3ccccc32)c(=O)n1-c1ccc(Cl)cc1)N1CCCC1 | -3.0% | 2.2 | / | 27.3 | / | /
CCCN(CC1CC1)S(=O)(=O)c1ccc(S(N)(=O)=O)cc1 | 0.6% | 0.7 | 1.2 | 7.1 | 0.0 | 3.8
O=C(N=c1ccn(-c2nc3ccccc3nc2NS(=O)(=O)c2ccccc2)cc1)c1cccs1 | 0.2% | 1.2 | -6.0 | 9.8 | 5.2 | -1.9
COC(=O)[C@]12CCCCC=C1N(Cc1ccco1)C(=O)[C@H](CC(=O)NCCCN1CCCC1=O)C2 | -0.3% | -0.5 | / | / | 8.9 | /
CC(C)=C1C2CCC1C1C(=O)N(NC(=O)COc3ccc(C(C)(C)C)cc3)C(=O)C21 (stereo not given) | -0.7% | 0.0 | -9.1 | -9.7 | -4.3 | -2.4
COc1ccc(N(C(=O)c2ccco2)C(C(=O)NC2CCCC2)c2ccco2)cc1OC (stereo not given) | -0.1% | -0.1 | -6.4 | -6.2 | -0.7 | -5.8
Clc1cccc(-c2ccc(/C=N/n3cnnc3)o2)c1 | -3.4%[38.3 µM] | 0.2 | -10.6 | -6.4 | -7.4 | 1.9

Reprinted from the part before: two compounds; new compounds follow.
SMILES | PINK1 modulator | TRPML1 agonist | D2 PAM | TRPML1 inh | Six1-Eya2 inh | D2 ag
COc1ccc(N(C(=O)c2ccco2)C(C(=O)NC2CCCC2)c2ccco2)cc1OC (stereo not given) | -0.1% | -0.1 | -6.4 | -6.2 | -0.7 | -5.8
Clc1cccc(-c2ccc(/C=N/n3cnnc3)o2)c1 | -3.4%[38.3 µM] | 0.2 | -10.6 | -6.4 | -7.4 | 1.9
C[C@H]1CN([C@@H](C)CO)C(=O)c2cc(Br)cnc2O[C@H]1CN(C)Cc1ccc(Oc2ccccc2)cc1 | 4.3% | 2.7 | -5.8 | 15.4 | -12.9 | 3.3
O=C(/C=C/c1ccco1)N1CCN(c2ccc(F)cc2)CC1 | 0.3% | 3.1 | -2.6 | -26.0 | -6.1 | -0.6
NS(=O)(=O)c1ccc(CCNC(=O)c2cc(-c3cccs3)nc3ccccc23)cc1 | 0.9% | -0.7 | 18.3 | -9.7 | 1.9 | 2.0
CC(C)CCn1c(Br)nc2c1c(=O)n(CC(N)=O)c(=O)n2C | -0.1% | 0.0 | -3.3 | 12.5 | -4.5 | -1.3
Cc1nc2n(n1)C(c1ccccc1)C1=C(CC(c3ccco3)CC1=O)N2 (stereo not given) | 1.4% | 0.1 | -6.5 | -3.5 | 5.7 | -2.2
O=C1OC(c2ccccc2)=C/C1=C/N1CCOCC1 | -3.2%[38.3 µM] | 0.1 | -21.2 | 3.3 | -1.2 | -1.5
COc1cccc(-c2nc(CS(=O)(=O)CC(=O)N3CCN(c4cc(C)ccc4C)CC3)c(C)o2)c1 | 0.0% | 0.3 | / | 0.7 | / | /
COc1ccccc1NS(=O)(=O)c1ccc(O)c(NC(=S)NCC2CCCO2)c1 (stereo not given) | 5.7% | 1.2 | 0.8 | 9.2 | 6.3 | -1.2
COc1ccc(NC(=O)C(CCSC)N2C(=O)c3ccccc3C2=O)cc1 (stereo not given) | -1.7% | ? | -0.5 | 15.9 | -2.2 | 0.2
COC1=CC(=O)C(C2CC(=O)c3c(O)cc(O)cc3O2)=CC1=O (stereo not given) | 5.8% | -0.2 | ? | 0.2 | -22.8 | ?
CCOC(=O)c1cccc(NC(=O)CCS(=O)(=O)c2ccc3c(c2)CC(=O)N3C)c1 | 0.1% | -1.1 | / | 11.2 | / | /
CC(C)(/C=N/O)/[N+]([O-])=C/c1ccccc1 | -0.7% | 1.1 | -3.4 | -4.5 | -0.4 | -5.2
Cc1cc(NC(=O)CSc2nc3cc(C)c(C)cc3cc2C)no1 | 7.6% | 0.3 | -1.0 | 9.7 | 2.0 | -3.4
O=C(O)CNc1ccccc1C(=O)O | 2.5% | -0.1 | 2.1 | -15.9 | 7.3 | 0.2
CCS(=O)(=O)N1CCc2cc(C(=O)NCc3ccccc3OC)ccc21 | 1.4% | 0.2 | / | 19.5 | / | /
CN1C(=O)CCS(=O)(=O)C1c1ccc(Cl)c(Cl)c1 (stereo not given) | 1.6% | -0.2 | 1.8 | -1.0 | -0.3 | -3.1
COc1ccc(Cl)cc1NC(=O)NN1CCN(C)CC1 | -0.8% | -0.3 | -9.5 | 18.1 | 0.5 | -6.9
Cc1cccc(NC(=O)c2sc3nc4n(c(=O)c3c2C)N=C(c2ccc(F)cc2)CS4)c1C | 1.4% | 1.0 | / | 0.3 | / | /
COC(=O)[C@@]1(Sc2ccc(C)cc2)CC(=O)N[C@@H]1c1ccco1 | 1.1% | -0.5 | / | / | 2.3 | /
COc1ccccc1C(C)Nc1nc(-c2cccnc2)nc2ccccc12 (stereo not given) | 26.4% | 0.8 | -19.1 | 22.1 | -29.8 | -1.5
CN(C)c1cccc(C(=O)N2CCCC(CCC(=O)NCc3ccccc3F)C2)c1 (stereo not given) | 4.8% | -0.7 | -9.9 | 21.0 | -1.3 | -0.4
CC(=O)Nc1ccc(NC(=O)C2CCCN2C(=O)Nc2cccc(F)c2)cc1 (stereo not given) | -2.5% | 0.6 | -0.9 | 12.4 | 19.2 | -0.8
CSc1nnc(-c2cccn(Cc3cccc(Cl)c3)c2=O)o1 | 0.9% | -1.4 | -0.2 | -1.7 | 2.0 | -2.2
Cc1cn(C2OC(COC(=O)c3ccccc3)C(O)C2Cl)c(=O)[nH]c1=O (stereo not given) | 2.6% | 0.4 | 1.5 | 3.4 | 0.3 | -2.3
Nc1nc2nccc(-c3ccco3)n2n1 | -1.8% | 0.2 | 3.6 | 3.2 | -1.5 | 3.8
N/C(=N\OC(=O)CC1CCCCC1)c1ccc([N+](=O)[O-])cc1 | 0.7% | 1.5 | ? | -9.2 | -8.9 | 11.4
CCCCOc1ccc(C(=O)Nc2ccc3c(c2)CCCN3S(=O)(=O)c2ccc(C)cc2)cc1 | 1.4% | 0.2 | / | 70.7 | / | /
CN(C)c1ccc(S(=O)(=O)N2CCCCC2)cc1NC(=O)C1=NN(c2ccccc2)C(=O)CC1 | 5.7% | 0.4 | -0.9 | -7.2 | -0.4 | 3.3
CCOC(=O)CSc1nc(Nc2ccc3c(c2)OCO3)c2ccccc2n1 | 5.2%[38.3 µM] | -0.5 | -0.9 | 0.7 | -3.6 | 0.6
O=C(CC12CC3CC(CC(Br)(C3)C1)C2)Nc1cccc(S(=O)(=O)NC2=NCCC2)c1 | 2.0% | 0.0 | -2.4 | 9.5 | 1.6 | -2.7
COc1ccccc1NC(=O)C1=C(C)Nc2nc(CCCO)nn2C1c1cccc(O)c1 (stereo not given) | -0.3% | -0.6 | / | 1.8 | / | /
COCCn1c(-c2ccc(OC)cc2)cnc1N | -3.1%[38.3 µM] | -0.1 | -13.6 | -9.2 | ? | -2.8
O=C(NNC(=O)c1ccccc1[N+](=O)[O-])c1cccs1 | -0.3% | 3.3 | -19.0 | -21.0 | -4.6 | 3.2
Nc1ccc2c(c1)C(=O)N(CCCCCC(=O)O)C2 | 0.5% | 0.8 | -14.1 | -4.2 | 3.1 | -0.7
Cc1ccc(C(C)C)c(OCC(=O)NNC(=O)Cn2[nH]c(=O)c3ccccc3c2=O)c1 | 0.8% | -1.3 | -8.3 | 5.9 | 2.6 | -3.9
CC1(C)NC(=O)NC2(C)NC(=O)NC(C)(C)C12 (stereo not given) | 2.3% | 0.0 | -14.3 | -17.4 | 12.9 | -2.4
CCCCCCCCC(=O)N/N=C(\C)c1cccnc1 | -0.6% | -0.8 | 5.6 | -2.4 | 6.3 | -0.7
COc1ccc(-n2c(Cc3cccn3C)nnc2SCC(=O)NC2CCCC2)cc1 | 3.6% | 0.7 | -4.2 | 16.3 | 1.2 | 4.7

Entries of single compounds, looked up by structure. Values in the order: PINK1 modulator | TRPML1 agonist | D2 PAM | TRPML1 inh | Six1-Eya2 inh | D2 ag
O=C(NNC(=O)c1ccccc1[N+](=O)[O-])c1cccs1 reads -0.3% | 3.3 | -19.0 | -21.0 | -4.6 | 3.2
Nc1nc2nccc(-c3ccco3)n2n1 reads -1.8% | 0.2 | 3.6 | 3.2 | -1.5 | 3.8
